Screening results (PubChem BioAssay)
nsP2pro inh = inhibitors of chikungunya virus nsP2 protease; AID 1964107; FRET peptide cleavage, nsP2pro, fluorescence 1 h; actives 1.1% (n = 31,000); Potency, µM (series often up to 24.9 µM), without a hit: at the highest dose activity change, negative = inhibition, most hits filed as inhibitors; Q8JUX6; active means well fitted inhibition curve with a large enough effect; inconclusive means small, poorly fitted or top-dose-only effect; inactive means no such curve, though single readings can be large or run the other way; also: nearly all actives have a fitted effect of over 60% in size; a reference inhibitor and vehicle were the controls
The depositor's hits bear a star; i = inactive; ? = inconclusive; & = joins results of further samples; [ ] = another dose, or the depositor's remark. % is scaled to controls: 0 for no effect and ±100 for the full control effect; potency is read from the fitted curve at half-maximal effect. An excerpt; count on the stated rates, not on these rows.

Structure	nsP2pro inh
Cc1ccc2nc(-c3cccnc3)c(Nc3ccc(C(C)C)cc3)n2c1	-3%
Cc1ccc(NC(=O)c2oc3c(c2C)-c2[nH]ncc2CC3)c(Cl)c1	-21%
CCOC(=O)c1c(C)[nH]c(C)c1S(=O)(=O)N1CCCC(C(=O)NCc2ccc(Cl)cc2)C1 (configuration not stated)	-12%
Oc1c(Br)cc(Br)cc1CNC1CCC(O)CC1 (configuration not stated)	8.8µM*
CC(C)NC(=O)N1CCN(C2CCNCC2)C(=O)C1	?
O=C(c1ccc2c(c1)N(Cc1ccccc1F)C(=O)c1ccccc1S2(=O)=O)N1CCC(Cc2ccccc2)CC1	-8%
CC(C)(S)C(=O)N[C@@H](CS)C(=O)O	-1%
O=c1c(Nc2ccc(Br)c(Br)c2)c(Nc2nnc(-c3ccncc3)s2)c1=O	i
COc1ccccc1-c1nc(SCC(=O)Nc2ccc(C)c(C)c2)n[nH]1	-7%
N#Cc1c(N2C[C@@H]3NCCO[C@H]3C2)c(F)cc2c(=O)c(C(=O)O)cn(C3CC3)c12	6%
O=C(NCc1ccnc2[nH]ccc12)c1cncc(Br)c1	-24%[39.2 µM]
COc1ccc(Cn2c(CO)cnc2SCC(=O)Nc2ccc3c(c2)OCCO3)cc1	-26%
CC(C)(C)c1cc(NC(=O)Nc2ccc(-c3cn4c(n3)sc3cc(OCCN5CCOCC5)ccc34)cc2)no1	8%&12%
CC(C)(C)OC(=O)N[C@@H](Cc1ccc(OS(=O)(=O)c2cccc3cnccc23)cc1)C(=O)N1CCCN(C(=O)OC(C)(C)C)CC1	i
CC1(C)S[C@@H]2[C@H](NC(=O)[C@H](N)c3ccccc3)C(=O)N2[C@H]1C(=O)O	-5%
Cc1ccc(-c2nc3cccnc3s2)cc1NC(=O)C(C)C	?
C/C=C\C1=CCCC1Nc1ncnc2ccc(-c3c(C)noc3C)cc12 (configuration not stated)	i
COc1cc(OC)cc(C(=O)N2CCC(c3nc(C4CCOC4)no3)CC2)c1 (configuration not stated)	2%
O=C(NCc1cccs1)c1nn(-c2ccccc2F)nc1CO	-14%
NC(=O)CO[C@@H]1CO[C@H]2[C@@H]1OC[C@@H]2NC(=O)NCc1ccccc1	-12%[39.2 µM]
COCCC1(N(C)C)CCN(C(=O)c2ccnn2C)CC1	2%
COc1ccc(C2NC(=O)NC(C)=C2C(=O)Nc2ccccc2)cc1OC (configuration not stated)	-11%
C=CCn1nc(C)c(CN2CCC(Oc3ccccc3OC)(C(=O)O)CC2)c1C	-2%
O=C1NCCCCCCN(C(=O)c2cccnc2)[C@H]2C[C@H](c3nc(Cc4ccccc4)no3)C[C@@H]12	-3%
NC(=O)C1CCN(c2nc(-c3ccc([N+](=O)[O-])cc3)cs2)CC1	0%
CN[C@H]1C[C@@H](N)[C@H](O)[C@@H](O[C@@H]2O[C@H](CO)[C@H](O)[C@@H]3OC4(O[C@H]23)O[C@H]([C@@H](N)CO)[C@H](O)[C@H](O)[C@H]4O)[C@@H]1O (some centres not stated)	31%
Cc1cccn2c(=O)c(-c3nnn[nH]3)cnc12	-5%[10 µM]
CCOc1ccc(-n2nc3ccc(NC(=O)Cc4ccccc4)cc3n2)cc1	-20%
CCSc1ncc(Cl)c(C(=O)N(Cc2ccccc2)Cc2ccco2)n1	-17%
COc1cccc(C(CC(=O)NCC(C)C)c2c[nH]c3ccccc23)c1 (configuration not stated)	i

Retrieved by compound from above:
Structure	nsP2pro inh
N#Cc1c(N2C[C@@H]3NCCO[C@H]3C2)c(F)cc2c(=O)c(C(=O)O)cn(C3CC3)c12	6%
CCOC(=O)c1c(C)[nH]c(C)c1S(=O)(=O)N1CCCC(C(=O)NCc2ccc(Cl)cc2)C1 (configuration not stated)	-12%
COc1ccc(C2NC(=O)NC(C)=C2C(=O)Nc2ccccc2)cc1OC (configuration not stated)	-11%

Continuation.
Structure	nsP2pro inh
COc1cccc(C2c3c(ncn(-c4cccc(Cl)c4)c3=N)Oc3ccc4ccccc4c32)c1 (configuration not stated)	-4%
C[C@@H]1C[C@@H](O)[C@@]23CO[C@]2(CO)CCC[C@@H]3[C@@]12C[C@@H](c1ccoc1)OC2=O	?
COc1cccc(C(=O)NC2CCN(c3cc(-c4cccs4)[nH]n3)CC2)c1OC	-2%
CCOc1ccc(CCNC(=O)c2ccc(Nc3nc4ccccc4n4nnnc34)cc2)cc1OCC	-31%
COc1ccc(-n2nc3n(c2=O)CCN(C(=O)c2ccccc2F)C3)cc1	-15%
Cc1cc2c(s1)c1cnn(Cc3ccccc3F)c(=O)c1n2C	3%
CC(C)c1noc(-c2cn(C3CCN(C(=O)c4ccc5ccccc5n4)C3)nn2)n1 (configuration not stated)	-4%
Cc1cc(C)nc(NC(=S)N2CCN(c3cc(Cl)cc(Cl)n3)CC2)c1	-6%
CN1CC(=O)N(C2CCCCC2)Cc2c(NCCO)ncnc21	-3%[39.2 µM]
O=C(OCC1=CC(O)C2C=CO[C@@H](O[C@@H]3O[C@H](CO)[C@@H](O)[C@H](O)[C@H]3O)C12)c1ccccc1 (some centres not stated)	22%[10 µM]
CCOC(=O)c1nc(NCc2ccc(Cl)cc2)c2c(C)noc2n1	-12%
Cc1ccnc(NC(=S)N2CC3CN(c4cccc(C(F)(F)F)c4)CC3C2)c1 (configuration not stated)	i
NS(=O)(=O)c1ccc(NC(=O)c2csnn2)cc1	?
CC1CCC2C(C)(C)CC(C)(CO)C2(O)C1C(=O)O (configuration not stated)	-11%
Cc1cc(C)cc(NC(=O)CCS(=O)(=O)c2cccc3nsnc23)c1	-30%
O=C(CCc1ccccc1Br)NCCc1nc2ccccc2[nH]1	-8%
Cc1ccc(S(=O)(=O)NC(=O)NN2CCCCCC2)cc1	-9%
CCOc1ccc(S(=O)(=O)c2c[nH]c3ccccc3c2=O)cc1	-25%
COc1cccc(-c2nc(S(=O)(=O)c3ccccc3)c(NCc3ccccc3)o2)c1	-13%
COc1ccccc1NC(=O)Cn1cc(C(=O)c2ccncc2)c(=O)c2cc(C)ccc21	-12%
Fc1cc(Nc2nc(-c3ccncc3)nc3ccccc23)ccc1-c1cccc(OC(F)F)c1	-3%
CCC(=O)N1CCc2ccc(C(=O)NC3CCCCC3)cc21	2%
CCOC(=O)c1c(NC(C)=O)c2c3c(sc2n1Cc1cccc(Cl)c1)CCCC3	-20%
Cc1cc(=O)n(CC(=O)NC(C)CCc2ccccc2)c(N2CCOCC2)n1 (configuration not stated)	-3%
O=C(NCc1ccccc1)Nc1nnc(-c2ccncc2)s1	2%
Fc1ccc(-c2nnc(CCCCSc3nnc(-c4cccc5ccccc45)o3)o2)cc1	-2%
CCCCCCCCCCC(CO)CCCCCCCC (configuration not stated)	-9%
CN1C(=O)COC[C@@H]1[C@H](O)c1ccc(NC(=O)Nc2ccccc2)cc1	-19%[39.2 µM]
O=C(N[C@@H]1CCOC[C@H]1OCc1cscn1)c1ccccc1-n1cccn1	-3%
Brc1ccc(-c2csc(-c3nc(-c4ccc(Br)s4)cs3)n2)cc1	-10%
CCOCCCn1c(=N)c(S(=O)(=O)c2ccc(Cl)cc2)cc2c(=O)n3cccc(C)c3nc21	-8%
COc1cc(COC2OC(CO)C(O)C(O)C2O)cc(OC)c1O (configuration not stated)	21%
CC(C)OCCCn1c(=O)c2ccccc2n2c(-c3ccccc3)nnc12	-24%
CCC(C)NC(=O)CN1C(=O)COc2ccc(S(=O)(=O)N3CCOCC3)cc21 (configuration not stated)	-5%
C[C@]12CCC3C(CC[C@H]4C[C@@H](O)CC[C@]34C)C1CCC2=O (some centres not stated)	?
COc1ccc(C2Oc3c(OC)cc(CCCO)cc3C2COC2OC(CO)C(O)C(O)C2O)cc1OC (configuration not stated)	-5%[10 µM]
O=C(Nc1ccc2nc(SCC(=O)N3CCOCC3)sc2c1)c1ccccc1Cl	-8%
COc1cc(C(=O)N2CCC(Cc3nc(C(C)C)no3)CC2)cc(OC)c1OC	i
COc1ccc(NC(=O)C2CCN(C(=O)c3ncn4c3COC(c3ccccc3)C4)CC2)cc1Cl (configuration not stated)	i
COC1(c2ccccc2)CCN(C(=O)C2CCCN(C(=O)N(C)C)C2)CC1 (configuration not stated)	-5%
O=C(NCCOc1ccccc1)[C@@H]1C[C@H](c2ccc(F)cc2)N([S+](=O)([O-])C2CC2)C1	i
N#Cc1ccc(-c2ccc(C3Nc4ccccc4C(=O)N3O)o2)cc1 (configuration not stated)	10µM*
NC(=O)CCC1NC(=O)C(Cc2ccccc2)NC(=O)C(Cc2ccc(O)cc2)NC(=O)CCSSCC(C(=O)N2CCCC2C(=O)NC(CCCN=C(N)N)C(=O)NCC(N)=O)NC(=O)C(CC(N)=O)NC1=O (configuration not stated)	3%[10 µM]
CCC1CCCCN1C(=O)CSc1nc2c([nH]c3ccccc32)c(=O)n1-c1cccc(OC)c1 (configuration not stated)	-18%
FC(F)(F)c1cc(-c2ccc(CNc3nc(-c4ccccc4C(F)(F)F)nc4ccccc34)cc2)ccc1Cl	2%
COc1cc(NC(=O)Cn2c(=O)cc(C)c3c(C)nn(-c4ccc(C)cc4)c32)cc(OC)c1	-15%
Cc1cc(CNC(=O)[C@@H]2CCC[C@@H](NC(=O)C3CCOCC3)CN(C)C(=O)C2)no1	i
NC1CC(c2cc(N3CCN(c4nnc(C(F)(F)F)s4)CC3)ncn2)C1 (configuration not stated)	4%
CCN1CCN(c2cc3c(cc2F)c(=O)c(S(=O)(=O)c2cc(C)cc(C)c2)cn3CC)CC1	7%
CC1=CC(=O)C(=C(C)C)CC2C(C)(O)CCC12O (configuration not stated)	55%

The list goes on:
Structure	nsP2pro inh
Cc1ccc(CNC(=O)c2ccc3c(=O)n(-c4ccccc4)c(=O)[nH]c3c2)cc1	2%
COc1ccc(N2CC(COc3ccccc3)Oc3nc(C)ccc3C2=O)cc1 (configuration not stated)	2%[10 µM]
O=C(NCC1CCN(c2cc(-c3ccc(Cl)cc3)[nH]n2)CC1)c1ccc(=O)[nH]c1	-2%
Cc1ccc(-c2ccc(=O)n(C(C)C)n2)cc1	2%
COC[C@@H]1CN(C(=O)CC2=CCCCC2)C[C@H]1c1ccncc1	-3%
O=C(CC(NCc1cccnc1)C(=O)O)Nc1ccc(F)cc1 (configuration not stated)	?
CN1C(=O)CC(C(=O)O)C12CCN(Cc1cccc(Cn3cccn3)c1)CC2 (configuration not stated)	-1%
COc1cccc(C(=O)N(C)Cc2ccccc2C(F)(F)F)c1	i
COc1ccc(N(Cc2cccs2)C(=O)c2ccco2)cc1	-15%
O=C(Nc1ccccc1)N[C@H]1[C@H](O)[C@@H](N2CCCCC2)[C@@H]2OC[C@H]1O2	-9%[39.2 µM]

Structures listed so far with a CF3 group:
Structure	nsP2pro inh
Cc1ccnc(NC(=S)N2CC3CN(c4cccc(C(F)(F)F)c4)CC3C2)c1 (configuration not stated)	i
FC(F)(F)c1cc(-c2ccc(CNc3nc(-c4ccccc4C(F)(F)F)nc4ccccc34)cc2)ccc1Cl	2%
NC1CC(c2cc(N3CCN(c4nnc(C(F)(F)F)s4)CC3)ncn2)C1 (configuration not stated)	4%
COc1cccc(C(=O)N(C)Cc2ccccc2C(F)(F)F)c1	i

The list continues:
Structure	nsP2pro inh
CN=C(N)NCCCCC/C=C(/C)CC(C)C1OC(=O)C(C)C(O)/C=C/C(C)C(O)CC(O)C(C)C(O)CCC(C)C(O)CC2(O)OC(CC(OC(=O)CC(=O)O)CC(O)CC(O)C(C)C(O)/C(C)=C/CCC1C)CC(O)C2O (configuration not stated)	16%[5.1 µM]
COc1ccc(-c2nc3cc(C(=O)NCC(C)C)ccc3o2)cn1	-1%[39.2 µM]
c1ccc(-n2cncn2)c(Cn2ccnc2-c2cc3n(n2)CCCNC3)c1	i
COc1ccc(-c2nn(-c3ccccc3C)cc2CN2CCCN(C)CC2)cc1F	i
CC(=O)OC1CC2CCC1(C)C2(C)C (configuration not stated)	8%
O=C(NCC1CCCO1)N1CCCCCCn2c(nnc2-c2ccc(F)cc2)CC1 (configuration not stated)	2%
CO[C@@]1(NC(=O)Cc2cccs2)C(=O)N2C(C(=O)O)=C(COC(N)=O)CS[C@@H]21	-23%
COC(=O)c1cccc(Nc2c(-c3cc(Br)ccc3O)nc3nc[nH]n23)c1	-15%
CCN(CCN(C)C)C(=O)CNCc1cc(C(N)=O)ccn1	161%[activator]
COc1cc(Nc2nc3c(s2)CCCC3c2ccccc2)ccc1-n1cnc(C)c1 (configuration not stated)	3%[5.1 µM]
O=Cc1c(-c2ccccc2)no[n+]1[O-]	3%
O=c1c(NS(=O)(=O)c2cccc(F)c2)ccc2n1C[C@H]1C[C@@H]2CN(S(=O)(=O)c2ccccc2)C1	18%
COc1cc(N2CCC(N)CC2)ccc1Nc1ncc(Cl)c(-c2c[nH]c3ccccc23)n1	-17%
O=C(Oc1ccccc1Cl)c1cc(-c2ccc3c(c2)OCCO3)on1	-5%
O=c1ccc2cc(S(=O)(=O)Nc3ccc(F)c(Cl)c3)ccc2[nH]1	-2%
Cc1cc(C)c2nc(NC(=O)c3ccc(S(=O)(=O)N4CCc5ccccc54)cc3)sc2c1	-15%
O=C(CC[C@H]1NC(=O)c2ccccc2NC1=O)Nc1nc(-c2cccnc2)cs1	i
CC(C)(NC(=O)[C@@H](N)Cc1ccc(O)cc1)C(=O)N[C@@H](Cc1cc2ccccc2[nH]1)C(=O)N[C@@H](Cc1ccccc1)C(=O)O	8%[5.1 µM]
CN(Cc1ccc(-n2cccn2)cc1)CC1CCN(CCc2ccc(F)cc2)CC1	i
CN1CCN(C2(CNC(=O)c3ccc(C(C)(C)C)cc3)CCCCC2)CC1	-21%
